Assay outcomes (PubChem)
Ecoli growth: E. coli growth inhibition; Escherichia coli growth, OD600, 23 h; stronger effect = lower value; AID 1053175; OD600 absorbance (no concentration beside the values); 330,000 tested, 0.21% active;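 active = OD600 absorbance below the run mean of sample wells minus 3.6 SD, in any replicate, cut at about 0.56 in these data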;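 note: stock transfer was 300 nL into about 60 µL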
FGF22 binding: shifts melting point of recombinant human FGF22. Q9HCT0. calls only at 9.99 µM. recombinant FGF22 thermal shift, SYPRO orange fluorescence; percent of sucrose octasulfate shift, DMSO zero. 340,000 tested, 1.5% active;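 active = melting point raised past a set limit in the mean and every replicate; three in four hits are not shown here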
Target sequence (Q9HCT0 whole entry, looked up): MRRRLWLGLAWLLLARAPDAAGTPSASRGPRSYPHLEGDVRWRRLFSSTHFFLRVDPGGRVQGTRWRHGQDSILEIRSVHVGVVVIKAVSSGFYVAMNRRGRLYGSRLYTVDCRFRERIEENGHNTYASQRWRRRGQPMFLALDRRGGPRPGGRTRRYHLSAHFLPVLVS
T cruzi inh: blocks replication of Trypanosoma cruzi; inhibition, % (no concentration beside the values); AID 1885; 300,000 tested, 1.4% active; T. cruzi beta-gal in NIH3T3, luminescence, 90 h;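 active = mean inhibition across valid replicates above about 55%, limit read from the data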;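 note: signal also drops with host cell toxicity which is not excluded here; 0% = plate median of DMSO wells and 100% = zero luminescence signal; higher percent means less beta-gal luminescence so fewer parasites; stock transfer was 50 nL into about 50 µL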
A1 inh: inhibitors of the anti-apoptotic protein A1, read as caspase activation. caspase activation, % (test concentration not listed). 330,000 tested, 0.066% active. MEF A1-2A-BIM cells, Caspase-Glo 3/7 luminescence, 3 h; percent of clofoctol response, vehicle zero;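 active = over half of replicate activation scores above 10%, or exactly half above 10 with the replicate mean above 10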;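 note: wells of about 30 µL received 50 nL stock; many hits fall short of the cut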
Beta cell apopt: beta cell apoptosis inhibition; INS-1E cytokine-induced death, ATP luminescence, 48 h; percent of positive-control rescue, neutral wells zero; protection from apoptosis, % (test concentration not listed); 300,000 tested, 0.8% active; AID 435005;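 active = all replicates at 75% or more, or half of them and the mean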;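 note: 0% = cytokine-treated negative control wells and 100% = positive control rescue; higher means more ATP so stronger rescue from cytokine killing; wells of about 40 µL received 100 nL stock; the first replicate is given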
UCH37 inh: human UCH37 deubiquitinating enzyme inhibition | purified proteasome/UCH37, Ub-AMC cleavage fluorescence | inhibition, % (no concentration beside the values) | Q9Y5K5 | 330,000 tested, 0.33% active | AID 588478;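 active = mean of two replicates above 20%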;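 note: 0% = compound-free wells with enzyme and 100% = wells lacking proteasome; stock transfer was 100 nL into about 20 µL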
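system = Proteasome-associated human UCH37 deubiquitinase | amount = 0.15 nM proteasome as dispensed | medium = pH 7.4 Tris-HCl (50 mM) with ovalbumin, ATP-MgCl2, DTT | incubation = 30 min preincubation with enzyme, 25 min cleavage at room temperature | detection = AMC fluorescence 355/460 nm | read-out basis = percent inhibition | controls = no-proteasome and no-compound wells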
MLL AF4-AF9 inh: blocks AF4 peptide binding to human AF9; inhibition, % at 10 µM; AlphaScreen, biotin-AF4 peptide binding to FLAG-AF9; 350,000 tested, 0.47% active; P42568;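 active = every replicate reaching a set inhibition limit, whatever the replicate mean, cut at about 25% in these data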;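 note: 0% = plate neutral control median and 100% = total signal loss; the record names both 10 and 1 µM as test concentration; the first replicate is given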
Target sequence (P42568 whole entry, looked up): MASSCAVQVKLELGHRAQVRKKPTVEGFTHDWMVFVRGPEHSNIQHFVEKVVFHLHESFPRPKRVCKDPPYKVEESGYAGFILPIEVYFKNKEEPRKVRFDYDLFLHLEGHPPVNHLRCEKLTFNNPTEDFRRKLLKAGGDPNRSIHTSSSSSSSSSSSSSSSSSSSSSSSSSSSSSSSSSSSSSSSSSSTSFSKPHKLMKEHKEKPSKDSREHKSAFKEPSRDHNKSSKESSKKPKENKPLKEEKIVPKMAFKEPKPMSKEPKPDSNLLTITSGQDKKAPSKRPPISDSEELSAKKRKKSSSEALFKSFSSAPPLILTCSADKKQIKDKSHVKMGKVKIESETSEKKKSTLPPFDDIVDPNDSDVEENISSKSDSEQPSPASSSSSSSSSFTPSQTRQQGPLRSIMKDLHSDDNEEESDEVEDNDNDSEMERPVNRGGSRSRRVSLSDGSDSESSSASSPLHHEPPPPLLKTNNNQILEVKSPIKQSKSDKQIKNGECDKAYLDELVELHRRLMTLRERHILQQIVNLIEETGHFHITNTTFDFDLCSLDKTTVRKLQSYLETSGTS
rRNA inh HTS: selective bacterial rRNA inhibition in E. coli. E. coli WT GFP vs humanized-ribosome RFP mutants, fluorescence, 24 h; stronger effect = lower value; DMSO median 0, no signal -100. GFP signal change (wild-type ribosome), % (test concentration not listed). 350,000 tested, 1.6% active. AID 720706;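 active = significant combined selectivity score with lowered wild-type GFP, culture density cut under 30%, mutant RFP and density less affected; inactive = any of these conditions unmet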; note: one replicate is shown; some compounds called inactive have numbers as strong as hits
rRNA inh HTS OD600: recorded beside rRNA inh HTS, whose call it bears; OD600 change, %; measured here: OD600 growth;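 optical density of the mix in the first replicate; 0 = DMSO median and -100 = no signal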
rRNA inh HTS RFP: recorded beside rRNA inh HTS, whose call it bears; RFP signal change, %; measured here: RFP humanized mutant strains;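 first replicate; 0 = DMSO median and -100 = no signal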
* hit, by the source's call; i = inactive; nt = no result given. These rows are one share of the data; count on the stated rates, not on these rows.

SMILES	Ecoli growth	FGF22 binding	T cruzi inh	A1 inh	Beta cell apopt	UCH37 inh	MLL AF4-AF9 inh	rRNA inh HTS	rRNA inh HTS OD600	rRNA inh HTS RFP
O=C(c1cn(-c2ccccc2)nc1-c1cccs1)N(CCO)Cc1ccccc1	0.7	nt	-6	0.4	3	-0.9	nt	nt	nt	nt
O=c1[nH]c(SCc2ccccc2[N+](=O)[O-])nc2nc[nH]c12	nt	i	-27	-0.2	-1	nt	-0.5	4	14	-0.3
CCc1nc(CNC(=O)C2CCC(=O)N(CCc3ccc(OC)cc3)C2)cs1 (centres undefined)	0.66	i	-11	0.8	nt	1.5	-2.5	8	6	1.7
O=C1CC(c2ccc3c(c2)OCO3)Sc2nc3ccccc3n21 (centres undefined)	0.66	nt	-19	0.2	1	1.9	nt	nt	nt	nt
CCOC(=O)C1CCN(S(=O)(=O)c2ccc(C)cc2)CC1	0.71	i	-7	-0.3	0	1.1	-48	3	-2	-0.1
COC(=O)C1(C(F)(F)F)C2C=CC(C2)N1S(=O)(=O)c1ccc(C)cc1 (centres undefined)	0.71	i	-8	0.0	0	2.5	-0.2	-2	-10	1.4
O=C(COC(=O)c1cccc(S(=O)(=O)N2CCOCC2)c1)Nc1nc(-c2ccccc2Cl)cs1	0.7	nt	0	0.1	2	-0.5	nt	nt	nt	nt
Cc1ccc(NS(=O)(=O)c2cccc(C(=O)NCc3ccccn3)c2)cc1	0.64	i	4	1.8	5	2.2	0.4	-4	5	7.6
Cc1ccc(CSC2=NCCN2C(=O)c2ccco2)cc1	0.71	i	9	0.5	2	5.8	4.8	2	3	-1.8
CC(C)C[C@H](NC(=O)C1CC(=O)N(c2ccc3c(c2)OCO3)C1)C(=O)NC1CCCCC1 (some centres undefined)	0.69	i	6	0.8	3	3.5	2.6	10	3	1.3
Cc1cc2ccccc2n2c(SCC(=O)NCc3cccs3)nnc12	0.69	nt	-2	-0.2	-2	0.1	nt	nt	nt	nt
COc1ccc(NC(=O)Cn2cnc3c(cnn3C(C)(C)C)c2=O)cc1OC	0.74	i	6	0.3	-1	0.3	-0.7	5	3	1.5
COc1ccc(C2=NN(C(=O)c3cccs3)C(O)(C(F)(F)F)C2)cc1 (centres undefined)	0.7	i	15	1.0	-3	2.6	-1.9	-33	-36	-4.3
CN(CC(=O)Nc1cccc(F)c1)C(=O)/C=C/c1cn(Cc2ccccc2)nc1-c1cccnc1	0.69	i	22	-0.4	2	1.3	5.8	7	1	30
C=CCc1ccc(OCCOCCN(C)C)c(OC)c1	0.73	nt	-1	1.0	3	6.6	nt	nt	nt	nt
COCCNC(=O)c1c(CSc2ccc(F)cc2)noc1C(=O)NCc1ccccc1	0.69	i	9	0.5	-2	1.6	6.8	0	6	-12
CCc1nnc(NC(=O)CSc2nnc(-c3ccccc3OC)n2-c2ccc(C)cc2)s1	0.72	nt	1	0.8	1	-0.1	nt	nt	nt	nt
CC(=O)Nc1ccc(S(=O)(=O)Oc2ccc(C(=S)N3CCC(O)CC3)cc2)cc1	0.68	nt	-65	-0.8	4	1.1	nt	nt	nt	nt
COC(=O)/C(=C1/Oc2cc3c(cc2S1)OCO3)C(F)(F)F	0.7	i	-13	-1.9	-5	-30	2.6	10	11	-4.8
O=C(Nc1ccccc1O)c1ccc2c(c1)C(=O)N(N1C(=O)c3ccccc3C1=O)C2=O	0.7	i	-16	1.0	-6	3.6	-2.3	5	16	0.1
O=C(CSc1nccc(=O)[nH]1)N1CCCc2ccccc21	0.66	nt	-9	-0.9	0	1.9	nt	nt	nt	nt
CCCCC(=O)Nc1cccc(NC(=O)c2cccc(Br)c2)c1	0.63	i	-5	-0.5	-7	0.7	-4.1	-2	3	-0.8
CC1CCCCC1NC(=O)CCCCn1c(=O)[nH]c2ccsc2c1=O (centres undefined)	0.65	i	16	0.7	-2	5.8	13	0	-2	0.1
CC1CCCC(C)N1CCNC(=O)CCc1nnc2n(Cc3ccccc3)c(=O)c3ccccc3n12 (centres undefined)	0.74	i	-9	-0.7	-4	5.3	4.5	7	15	5.0
O=C(COC(=O)Cc1ccc(Br)cc1)NC12CC3CC(CC(C3)C1)C2	0.71	nt	-4	0.9	-3	0.0	nt	nt	nt	nt

(cont.)
SMILES	Ecoli growth	FGF22 binding	T cruzi inh	A1 inh	Beta cell apopt	UCH37 inh	MLL AF4-AF9 inh	rRNA inh HTS	rRNA inh HTS OD600	rRNA inh HTS RFP
Cc1ccc(NC(=S)Nc2ccc3[nH]c(=O)[nH]c3c2)cc1C	0.71	i	-4	0.1	-1	-0.4	8.5	10	4	-2.3
O=C1Nc2c(c(=O)[nH]c(=O)n2Cc2ccccc2)C1(NS(=O)(=O)c1ccccc1)C(F)(F)F (centres undefined)	0.66	i	-8	-0.5	-4	0.9	-2.0	12	9	-0.9
COc1cc(/C=C/c2[nH]c(=O)[nH]c(=O)c2[N+](=O)[O-])cc(OC)c1O	0.68	i	-4	-0.2	nt	15	4.9	-1	10	-1.2
O=C(COc1ccc2c(c1)CCC2)N1CCN(c2ccc(F)cc2)CC1	0.72	i	-4	-0.6	-1	2.6	-0.5	-3	-1	-1.1
O=C(C1CCC(=O)N(C2CC2)C1)N1CCN(c2cccc(Cl)c2)CC1 (centres undefined)	0.71	i	-6	-0.3	6	-0.5	-1.2	5	3	0.5
CCOC(=O)c1c(C)[nH]c(C(=O)OCC(=O)c2ccccc2)c1C	0.67	i	-5	-5.1	3	-0.2	0.7	-22	-22	-5.0
CC(C(=O)Nc1ccc(Br)cc1)N(C)CC(=O)NCc1ccco1 (centres undefined)	0.67	i	nt	-1.0	-3	0.8	0.0	-5	-6	-2.2
CCOC(=O)C1=CN(Cc2ccco2)S(=O)(=O)NC1CC (centres undefined)	0.67	i	nt	nt	nt	0.2	-2.4	18	9	5.4
O=[N+]([O-])c1ccc(N2CCN(S(=O)(=O)c3ccccc3)CC2)cc1NCCN1CCOCC1	0.67	nt	23	-0.5	8	9.9	nt	nt	nt	nt
CCC(NC(=O)Nc1cc(C)on1)(C(F)(F)F)C(F)(F)F	0.64	i	-27	0.2	-2	5.3	-1.0	3	3	0.7
C[C@@H](C(=O)OCC(=O)NCCc1ccc(S(N)(=O)=O)cc1)N1C(=O)C2CCCCC2C1=O (some centres undefined)	0.64	i	-7	-0.7	1	3.5	-1.3	10	4	-4.3
O=c1[nH]c2cc(Cl)c(Br)cc2o1	0.56	i	nt	nt	nt	2.5	-1.4	-55	-76	-14
O=C(CSc1nnc(-c2ccncc2)n1Cc1ccco1)Nc1ccccc1Cl	0.7	nt	-11	-0.2	2	4.5	nt	nt	nt	nt
COC(=O)c1ccc(NC(=O)c2ccc(OC(C)=O)c(OC)c2)cc1	0.66	i	-12	-9.8	8	1.6	-0.3	-5	-5	1.7
Cc1cccc(NC(=O)c2ccc(S(=O)(=O)NCc3ccco3)cc2)n1	0.69	i	nt	-1.3	-4	-1.5	-2.0	13	18	-1.0
CCCc1c(C)[nH]c2nc3ccccc3n2c1=O	0.68	i	-3	1.9	-3	-39	1.5	-2	3	-2.7
O=C1Nc2ccccc2C1=O	0.67	i	-6	-0.8	-5	2.9	-6.5	3	8	3.2
COc1ccc(-c2nn(-c3ccccc3)cc2/C=C(\CC(=O)O)c2nc3ccccc3s2)cc1OC	0.73	i	18	-0.4	-6	-105	-1.3	-25	-50	30
Cc1ccc([N+](=O)[O-])cc1NC(=O)C(C)Sc1nnc(C)n1CC1CCCO1 (centres undefined)	0.7	i	-3	0.0	-5	8.3	-0.7	-5	1	-3.0
CC1(C)NC(=O)N(CCOc2cccc(Cl)c2Cl)C1=O	0.74	nt	-28	0.7	-6	3.9	nt	nt	nt	nt
O=C(CCC1CCCN(C(=O)c2cccc(F)c2)C1)N1CCN(c2ccccn2)CC1 (centres undefined)	0.7	i	25	0.2	-1	-2.5	-0.7	-1	3	-0.2
NS(=O)(=O)c1cccc(NC(=O)CSc2ncc(C(F)(F)F)cc2Cl)c1	0.71	i	-2	0.4	-5	6.7	0.4	-12	-4	-4.1
Cc1ncc(C23CC4CC(CC(C4)C2)C3)[nH]1	0.61	nt	26	0.8	-8	1.6	nt	nt	nt	nt
CCOc1ncccc1C(=O)Nc1cccc(Cl)c1Cl	nt	i	9	0.2	5	2.5	-1.0	12	8	-1.7
COc1ccccc1C(=O)Nc1ccc2c(c1)C(=O)NC2=O	0.7	i	-12	-0.2	4	-122	1.8	11	13	-0.4

Going on with the list.
SMILES	Ecoli growth	FGF22 binding	T cruzi inh	A1 inh	Beta cell apopt	UCH37 inh	MLL AF4-AF9 inh	rRNA inh HTS	rRNA inh HTS OD600	rRNA inh HTS RFP
COc1cc(OC)cc(C(=O)Nc2ccc(N3CCN(C(=O)c4cccs4)CC3)cc2)c1	0.71	i	26	0.8	19	-0.5	1.1	-8	-4	2.3
Cc1cccc(CNC(=O)CCCn2nc(C)c3c(C)n(-c4ccccc4)nc3c2=O)c1	0.71	i	3	0.0	-2	2.4	0.5	0	0	0.8
O=C(CCNC(=O)c1ccc(Cl)cc1)NCc1ccco1	0.72	nt	nt	0.2	-1	4.7	-3.8	8	10	-0.3
Cc1cc(Oc2ccc(OCC(N)=O)nn2)nc(Cl)n1	0.64	nt	1	0.9	-2	1.1	0.9	15	15	0.4
Cc1ccc(S(=O)(=O)CCC(=O)OCC(=O)N(Cc2ccccc2)C(C)C)cc1	0.64	i	-10	-0.3	-8	-0.8	-0.5	10	8	2.4
CCOC(=O)c1sc(N)c(C(=O)OC)c1C	0.71	i	-9	-0.8	-4	4.7	-1.0	-5	-9	-1.3
Cn1c(SCCOc2ccc(F)cc2)nnc1-c1ccncc1	0.7	i	-4	-0.4	-3	-1.7	4.7	6	-2	-6.0
O=C(NCc1ccco1)C(c1cccs1)N(Cc1ccccc1)C(=O)Cn1nnc2ccccc21 (centres undefined)	0.76	nt	8	2.0	0	3.3	nt	nt	nt	nt
CCOC(=O)Cn1c(=O)oc2cc(S(=O)(=O)NCc3ccccn3)ccc21	0.67	i	-4	0.5	-6	2.8	-2.3	11	12	1.8
CCc1cc2c(COC(=O)c3c(C)noc3C)cc(=O)oc2cc1O	0.69	i	15	-0.4	9	-49	3.5	7	9	-0.7
CCC(C)NS(=O)(=O)c1ccc(NS(C)(=O)=O)cc1 (centres undefined)	0.67	nt	-7	0.3	-18	1.1	nt	nt	nt	nt
COc1cc(C(=O)NCC2CCCO2)ccc1OCc1c(C)noc1C (centres undefined)	0.73	nt	11	0.3	-3	1.5	nt	nt	nt	nt
